RecA intein inh = Mtb RecA intein splicing inhibitors, primary screen, biochemical, fluorescence, HTS; cell-free RecA intein splicing; inhibition, %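 (about 9 µM by stock and volumes)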; 0.75% of 290,000 active; in the data active = inhibition above about 30%; inconclusive = no clear call, values can overlap the other calls;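 also: 0% = vehicle wells and 100% = reference inhibitor control wells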
Target sequence (P9WHJ3 whole entry, looked up): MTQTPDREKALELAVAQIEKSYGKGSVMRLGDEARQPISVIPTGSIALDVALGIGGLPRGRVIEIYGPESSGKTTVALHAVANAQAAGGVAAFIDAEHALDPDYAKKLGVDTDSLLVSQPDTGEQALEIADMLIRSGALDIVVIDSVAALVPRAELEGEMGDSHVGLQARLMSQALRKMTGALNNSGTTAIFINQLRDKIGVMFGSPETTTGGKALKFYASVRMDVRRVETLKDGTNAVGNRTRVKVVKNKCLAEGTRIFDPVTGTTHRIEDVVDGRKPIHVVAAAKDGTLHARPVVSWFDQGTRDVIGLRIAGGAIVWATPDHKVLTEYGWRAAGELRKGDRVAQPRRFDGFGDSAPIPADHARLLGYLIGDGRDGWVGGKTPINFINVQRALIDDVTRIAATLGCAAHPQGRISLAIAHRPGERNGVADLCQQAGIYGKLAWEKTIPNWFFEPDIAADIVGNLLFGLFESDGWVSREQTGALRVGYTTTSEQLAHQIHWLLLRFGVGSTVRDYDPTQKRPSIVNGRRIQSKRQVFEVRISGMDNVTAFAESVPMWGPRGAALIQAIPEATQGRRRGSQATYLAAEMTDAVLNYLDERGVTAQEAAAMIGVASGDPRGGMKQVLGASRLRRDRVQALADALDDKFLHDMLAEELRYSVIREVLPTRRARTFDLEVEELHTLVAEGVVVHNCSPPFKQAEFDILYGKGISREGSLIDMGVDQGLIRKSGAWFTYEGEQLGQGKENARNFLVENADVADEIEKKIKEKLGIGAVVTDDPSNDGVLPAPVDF
Arbovirus anti = antivirals against arbovirus infection, primary screen, cell-based, full library, 10K replicate subset; inhibition, % at 10 µM; AID 1251, 2008; 0.37% of 200,000 active; arbovirus infection cell-based antiviral screen;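 active = inhibition from about 30%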;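 also: bluetongue infection of BSR cells; cell survival read as ATP light after 72 h; 0% = infected wells without compound and 100% = uninfected wells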
Mtb H37Rv = M. tuberculosis H37Rv growth inhibitors, H37Rv strain (AID 1626) | M. tuberculosis H37Rv growth inhibition; higher % means a stronger effect | 0.95% of 220,000 active | one-dose inhibition, % at 10 µM; IC50 in µM for titrated hits;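 active = confirmed in a dose series; inconclusive = inhibition above 80% but not taken into the dose series; inactive = below 80% or under 30% at every dose of the series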;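 also: bacteria incubated seven days before Alamar blue readout; 0% = bacteria only wells and 100% = bacteria with antibiotic wells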
Mtb betalactam = beta-lactam sensitization of Mtb H37Rv, H37Rv. inhibition, % at 25 µM. AID 434955, 2010. M. tuberculosis H37Rv growth with meropenem, percent inhibition; hits of this screen are not shown here. 0.27% of 330,000 active;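 active = about 74% or more and at least 40 points above the plate without the antibiotic, then above 30% in a dose series; inconclusive = first-round hits that could not be retested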;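 also: growth measured after seven days incubation then overnight dye step; 0% = bacteria only wells and 100% = bacteria with antibiotic; twin plates without the antibiotic show which effects depend on it; some results filed as inactive read as strong as hits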
YopH inh = YopH tyrosine phosphatase inhibitors, primary screen, biochemical, fluorescence Ex485/Em525. YopH tyrosine phosphatase [Yersinia enterocolitica]. inhibition, %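 (about 10 µM by stock and volumes)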. 0.16% of 140,000 active. AID 898, 2007;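 active = inhibition of 50% or more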;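 also: controls were vehicle for no effect and minimum signal wells for full effect; inactives centre near -20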
Arbovirus anti repeat = recorded beside Arbovirus anti, whose call it bears; inhibition, %; measured here: 10K subset replicate screen; many hits read low in the repeat;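 first of two repeat runs on a subset; 0% = infected and 100% = uninfected wells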
* hit, by the source's call; ? = inconclusive; nt = no result given.

SMILES | RecA intein inh | Arbovirus anti | Mtb H37Rv | Mtb betalactam | YopH inh | others
Cn1c(SCC(=O)N2CCOCC2)nnc1-c1ccc2ncccc2c1 | -0.2 | nt | -13.8% | -3.8 | nt
CC1Cc2cc(C3(O)C(=O)c4ccccc4C3=O)ccc2N1 (configuration not stated) | 1.6 | -4.8 | -9.1% | 4.0 | -25.9
CN(CCOc1ccccc1)Cc1nc2cc(Cl)ccc2c(=O)[nH]1 | -0.5 | 5.0 | 64.7% | 56.0 | nt
COc1ccc(C(=O)Nc2nc(C)cc(C)n2)cc1[N+](=O)[O-] | -1.0 | 10.0 | 5.3% | -0.3 | -3.3
COc1ccc(NC(=S)NC(C)Cc2cccs2)cc1 (configuration not stated) | 0.2 | 2.4 | 5.5% | -3.8 | nt
O=C(Nc1ccc(F)c(F)c1)C1CCCN1S(=O)(=O)c1ccc(F)cc1 (configuration not stated) | 2.1 | nt | nt | 2.4 | nt
Cc1ccc(NC(=O)c2c(C)nc3ccccn23)cc1C | 0.5 | -1.7 | -12.4% | 4.3 | nt
CC(C)C(NC(=O)c1ccc(C(C)(C)C)cc1)C(=O)NC1=NCCS1 (configuration not stated) | -0.7 | 5.1 | 4.2% | 27.7 | -7.3
COC(=O)c1[nH]c2ccccc2c1NC(=O)CN1CCN(C/C=C/c2ccccc2)CC1 | 1.1 | -31.4 | 32.7% | 86.5 | -2.8
COc1ccc(-n2nc3cc(C)c(NC(=O)C(C)C)cc3n2)cc1 | -1.3 | 0.3 | -0.7% | nt | -37.6
c1ccc(-c2nc(NCc3ccco3)c3oc4ccccc4c3n2)cc1 | 8.0 | -11.8 | 34.6% | 89.1 | -2.1
CCN1CCCC1CNC(=O)c1ccc(N2CCCC2=O)cc1 (configuration not stated) | -1.3 | 1.9 | -3.4% | -0.1 | -35.0
O=C1Nc2ccc([N+](=O)[O-])cc2OC1CCN1CCN(Cc2ccc3c(c2)OCO3)CC1 (configuration not stated) | 3.3 | -2.9 | 1.6% | 0.4 | nt
O=C(Cc1ccc(Br)cc1)c1ccc(O)cc1O | 4.8 | -1.4 | 11.8% | 7.1 | -2.3
COc1cc(NC(=O)CN2CCC(Cc3ccccc3)CC2)c(C)cc1[N+](=O)[O-] | 0.9 | -0.8 | 5.5% | -6.8 | -22.4
O=C(NC1CCCCC1)C(c1ccc(O)cc1)N(CC1CCCO1)C(=O)C1COc2ccccc2O1 (configuration not stated) | 8.6 | -1.2 | -10.3% | -20.3 | -1.0
COc1ccc(OC)c(S(=O)(=O)N2CCC(C(=O)NCc3ccccc3OC)CC2)c1 | -0.1 | 4.0 | 3.2% | -2.5 | -29.1
O=C(CCc1ccccc1)NC(NC(=S)Nc1cccc(Cl)c1)C(Cl)(Cl)Cl (configuration not stated) | 2.4 | 3.0 | -2.5% | -0.1 | -31.8
O=c1[nH]ncc(NCc2ccc(Cl)cc2)c1Cl | -0.7 | -4.0 | -1.3% | 3.6 | nt
O=C(c1cnc(Cl)c(Cl)c1)N1CCN(S(=O)(=O)c2ccc(F)cc2)CC1 | 2.0 | nt | nt | 1.2 | nt
O=[N+]([O-])c1cc(S(=O)(=O)CCCN2CCOCC2)ccc1F | 2.5 | -13.2 | -3.4% | 0.5 | nt
O=C(O)CC(NC(=O)c1cccc([N+](=O)[O-])c1)c1ccc2c(c1)OCO2 (configuration not stated) | -0.3 | 12.6 | 2.5% | 0.2 | nt
COc1ccccc1-n1c(=O)c2c3c(sc2n2c(=S)[nH]nc12)CCC3 | 3.3 | -1.9 | -4.5% | 6.6 | nt
O=C(Nc1ccccc1)NC1(C(=O)N2CCC(O)CC2)CCCCC1 | -0.4 | nt | nt | -0.3 | nt
Cc1ccc(-c2nnc(SCC(=O)N(CC(C)C)c3c(N)n(Cc4ccccc4)c(=O)[nH]c3=O)n2N)cc1 | 0.3 | nt | nt | -10.5 | nt
COc1ccc(CN(C)CC(=O)Nc2ccc(Cl)cc2F)c(OC)c1 | 2.2 | nt | 10.5% | -4.4 | nt
COc1cc(C(=O)CSc2nccn2C)cc(OC)c1OC | -2.5 | nt | nt | 6.1 | nt
Cc1c(C(=O)NCCN2C(=O)S/C(=C\c3cccnc3)C2=O)cccc1[N+](=O)[O-] | 1.4 | nt | nt | 3.6 | nt
CCN(CC)S(=O)(=O)c1ccc2oc(C(=O)NCc3ccc(C)cc3)c(C)c2c1 | 4.3 | -11.1 | 7.6% | -1.6 | -1.3
COc1ccc(CNC(=O)CSc2nnc3c(n2)[nH]c2ccc(OC)cc23)cc1 | 5.7 | nt | nt | 0.9 | nt
Cc1ccc(NC(=S)/N=C(\N)Nc2nc(C)c3cc(C)c(C)cc3n2)cc1C | 3.0 | 3.1 | 4.7% | -1.9 | nt
CCCn1cnc2cc(NCc3ccc(Br)cc3)ccc21 | 2.5 | nt | nt | 94.7 | nt
COC(=O)c1ccccc1NC(=O)c1ccccc1OC | 4.5 | 5.6 | 15.3% | 95.5 | -49.2
COc1ccc(C2CC(=O)Oc3c(C(CCN4CCOCC4)c4cc(OC)c(OC)c(OC)c4)c(OC)cc(OC)c32)cc1 (configuration not stated) | 0.4 | nt | -16.7% | -13.6 | nt
CCOC(=O)Cn1c(C)c(C#N)c2ccccc21 | -2.3 | 1.3 | -5.2% | 48.8 | -34.1
CCn1nc(C(=O)Nc2ccc3nc(C)sc3c2)c2ccccc2c1=O | -2.9 | -1.9 | 6.2% | 14.1 | -17.5
CCN1CCN(c2ncc3c(n2)CC(c2cc(OC)c(OC)c(OC)c2)CC3=O)CC1 (configuration not stated) | 0.0 | -11.2 | 0.8% | -4.2 | -43.8
CCOc1cccc2c1OC1(C)CC2NC(=O)N1c1cccc(C(=O)N2CCN(c3ccccn3)CC2)c1 (configuration not stated) | -4.8 | nt | nt | -1.6 | nt
O=C(O)COc1ccc(/C=N/Nc2nc(Nc3ccccc3)nc(N3CCCCC3)n2)cc1 | -0.3 | -8.7 | ? | ? | nt
Cc1nc2ccc(Br)cn2c(=O)c1Cl | 2.7 | 0.6 | -2.7% | -3.1 | -3.2
CCc1nn(CC(=O)NCCC2=CCCCC2)c(=O)c2cc3cc(F)ccc3n12 | 1.6 | nt | nt | -3.5 | nt
Cc1cc(Cl)ccc1C(=O)C1CCCN(C(=O)/C=C/c2cnn(C)c2)C1 (configuration not stated) | 4.2 | 2.3 | 4.7% | -6.9 | nt
O=C(Nc1ccc(Cl)cn1)Nc1ccccc1Cl | 1.6 | -6.5 | 0.3% | -0.2 | -30.4
COc1ccc(C2Nc3cccc4cccc(c34)N2)cc1 | 0.5 | -0.7 | -10.4% | 39.3 | nt
CCCn1c(CCC(=O)O)ccc1-c1ccc(F)cc1 | -2.0 | -1.6 | 0.4% | 13.1 | 2.5
CCN1/C(=C/c2ccc3cc(C)ccc3[n+]2CC)Sc2cc(C)ccc21 | nt | -34.5 | ? | nt | nt
c1ccc(CCNc2nc3ccccc3n3nnnc23)cc1 | -1.8 | 2.4 | nt | -5.8 | -39.0
Cc1c(-c2ccc(Cl)cc2)oc(=O)c2c(N)n(-c3ccccc3)nc12 | 1.1 | -6.6 | 0.5% | -1.8 | -17.3
O=C1NCCCC1C(=O)N1CCN(C(c2ccccc2)c2ccccc2)CC1 (configuration not stated) | nt | 2.8 | -2.3% | 4.3 | -32.5 | Arbovirus anti repeat=4.0
O=C(O)c1cccnc1NC1CCCC1 | 0.6 | 0.6 | -9.0% | 0.3 | -24.8
O=C(NCCN1CCCCC1)Nc1ccc(Br)cc1 | 1.6 | nt | nt | -5.5 | nt
CCC(C)NC(=O)[C@@H]1CSC2c3ccccc3C(=O)N21 (some centres not stated) | -1.4 | nt | nt | -14.1 | nt
O=C(Nc1ccc(Cl)c(Cl)c1)Nc1ccccn1 | 2.2 | nt | nt | 1.4 | nt
Cc1ccc(-c2cn(-c3ccccc3F)c(=S)[nH]2)cc1 | -0.1 | nt | nt | 6.8 | nt
Cc1ccccc1CSc1nnc(-c2cccnc2)n1N | -1.5 | -2.0 | 6.9% | -11.1 | -4.2
O=C1CCCC(O)=C1N=Nc1cccc(S(=O)(=O)N2CCOCC2)c1 | 0.8 | nt | -6.0% | -6.4 | nt
CS(=O)(=O)N(Cc1cccc(CN(C(C(=O)O)c2ccccc2)S(C)(=O)=O)c1)C(C(=O)O)c1ccccc1 (configuration not stated) | 0.3 | nt | nt | -9.0 | nt
Cc1cc(N2C(=O)C(O)=C(C(=O)c3ccco3)C2c2cccnc2)no1 (configuration not stated) | -0.7 | 2.0 | nt | -9.3 | -28.1
COc1cccc(Nc2nnc(Cc3cccnc3)c3ccccc23)c1 | -2.3 | nt | nt | 4.0 | nt
CCCCCn1c(=O)[nH]c2cc(C(=O)NCCCN3CCCCC3)ccc2c1=O | -1.3 | -12.4 | -14.8% | 2.2 | -25.1 | Arbovirus anti repeat=1.9

Next section.
SMILES | RecA intein inh | Arbovirus anti | Mtb H37Rv | Mtb betalactam | YopH inh | others
COC(=O)c1cn(-c2nc(C)c3c(n2)CCC3)nn1 | 4.9 | -1.8 | -2.1% | 2.3 | nt
COc1ccc(N2C(=O)CC2(/C=C/c2ccccc2OC)C(=O)NC2CCCC2)cc1 (configuration not stated) | 0.2 | -19.3 | -9.4% | -1.0 | -9.8
COc1cc(C2=NOC(C(=O)Nc3ccc4c(c3)OCO4)C2)cc(OC)c1OC (configuration not stated) | 0.6 | nt | nt | 4.8 | nt
O=C(NC(=S)Nc1ccccn1)c1cccc([N+](=O)[O-])c1 | -2.4 | nt | -2.5% | -4.4 | nt
COc1cccc(OC)c1CN1CCCC(C(=O)c2cccc(Cl)c2)C1 (configuration not stated) | 1.0 | nt | nt | 4.4 | nt
Cc1cc2c(cc1S(=O)(=O)NCCc1ccc(Cl)cc1)OCC(=O)N2 | 2.5 | nt | nt | -1.4 | nt
O=C(Nc1nc2ccc(S(=O)(=O)N3CCCC3)cc2s1)C1CCCO1 (configuration not stated) | -1.9 | 7.1 | -4.2% | 3.4 | -14.6
N=c1ccccn1Cc1ccccc1 | 1.3 | 8.0 | 7.6% | -2.2 | nt
CC1(C)CC(=O)C2=C(C1)c1c(ccc3ccccc13)NC2c1ccc(OCC(=O)O)cc1 (configuration not stated) | -117.8 | nt | nt | 5.4 | nt
COc1ccc(NC(=O)CSc2ccc3nnc(-c4ccccn4)n3n2)cc1OC | -1.6 | nt | nt | -3.4 | nt
CCN(CC(=O)Nc1ccc(NC(C)=O)cc1)C(=O)c1cc(C)on1 | -1.1 | nt | nt | -3.7 | nt
Cc1cc(C)n2nc3nc(N4CCCC4)nc(-c4ccccc4)c3c2n1 | 1.1 | -19.1 | 23.1% | 63.0 | -34.7
COc1ccc(NS(=O)(=O)c2ccc(NC(C)=O)cc2)nn1 | 0.3 | nt | nt | -5.5 | nt
COc1cc(Cn2cnnn2)ccc1O | -1.3 | 1.6 | -6.0% | -1.8 | -42.8
CCOCCCNC(=S)Nc1cc(OCC)c(NC(=O)c2ccco2)cc1OCC | 0.4 | -0.2 | -4.5% | 4.3 | nt
CC(/C=C1\SC(=S)N(C(C(=O)O)C(C)C)C1=O)=C\c1ccccc1 (configuration not stated) | 21.2 | 27.7 | -5.5% | -6.7 | nt
O=C(O)/C(=C\c1cccc([N+](=O)[O-])c1)c1ccc(S(=O)(=O)N2CCCCC2)s1 | 3.1 | nt | -6.3% | -2.7 | nt
Cc1ccc(NC(=O)CN(C)S(=O)(=O)c2cccc3nsnc23)cc1C | 1.6 | 1.6 | 1.1% | 3.3 | -39.6
O=C(Nc1ccccc1)NC1CCN(Cc2nnnn2C2CCCCC2)CC1 | 0.8 | 5.2 | -3.9% | -9.1 | -36.3
O=C(NCCCN1CCOCC1)c1cc2ccccc2o1 | 0.3 | -0.2 | -6.0% | -10.6 | -0.4
COC(=O)c1cc(-c2ccc(Br)cc2)c2c(=O)n(C)c(=O)n(C)c2n1 | 0.8 | nt | nt | -6.6 | nt
Cc1ccc(OCC(=O)N/N=C/c2ccccc2)c([N+](=O)[O-])c1 | 1.8 | -2.4 | 2.0% | nt | nt

Assay outcomes deposited in PubChem by several laboratories.

This is a subset; rates above refer to the full screens.
